Screening results (PubChem BioAssay)
MLL AF4-AF9 inh = inhibitors of AF4 peptide binding to AF9, primary screen, biochemical, AlphaScreen, biotin-AF4 peptide, FLAG-AF9, single point | AID 651704, 2012 | actives 0.47% (n = 350,000) | inhibition, % at 10 µM;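 active = every replicate reaching a set inhibition limit, whatever the replicate mean, cut at about 25% in these data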;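 also: 0% = plate neutral control median and 100% = total signal loss; the record names both 10 and 1 µM as test concentration; the first replicate is given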
Target sequence (P42568 whole entry, looked up): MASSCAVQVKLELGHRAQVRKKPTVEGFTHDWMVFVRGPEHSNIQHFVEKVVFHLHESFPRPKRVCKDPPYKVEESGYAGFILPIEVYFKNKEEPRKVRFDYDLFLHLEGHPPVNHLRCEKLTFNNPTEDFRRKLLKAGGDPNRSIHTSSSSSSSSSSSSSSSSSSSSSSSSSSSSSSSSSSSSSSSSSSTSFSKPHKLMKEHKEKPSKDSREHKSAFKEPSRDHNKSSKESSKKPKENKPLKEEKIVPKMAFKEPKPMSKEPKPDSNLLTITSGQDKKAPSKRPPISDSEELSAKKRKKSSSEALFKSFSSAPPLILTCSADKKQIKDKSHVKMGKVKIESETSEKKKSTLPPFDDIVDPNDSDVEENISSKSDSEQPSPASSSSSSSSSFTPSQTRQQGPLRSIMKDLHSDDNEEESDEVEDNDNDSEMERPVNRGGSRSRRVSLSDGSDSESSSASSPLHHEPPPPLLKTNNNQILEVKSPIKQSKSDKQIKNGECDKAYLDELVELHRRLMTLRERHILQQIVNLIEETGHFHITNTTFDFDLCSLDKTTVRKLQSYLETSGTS
FGF22 binding = binders of human FGF22 protein, primary screen, FGF22 synaptogenesis inhibitor project, biophysical, thermal shift, single point; recombinant FGF22 thermal shift, SYPRO orange fluorescence; percent of sucrose octasulfate shift, DMSO zero; actives 1.5% (n = 340,000); calls only at 9.99 µM;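 active = melting point raised past a set limit in the mean and every replicate; three in four hits are not shown here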
Target sequence (Q9HCT0 whole entry, looked up): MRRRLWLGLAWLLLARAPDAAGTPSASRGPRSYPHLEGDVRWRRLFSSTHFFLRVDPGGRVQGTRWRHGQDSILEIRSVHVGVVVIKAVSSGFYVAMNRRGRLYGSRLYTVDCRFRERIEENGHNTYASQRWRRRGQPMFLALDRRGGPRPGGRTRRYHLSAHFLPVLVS
Ecoli growth = E. coli growth inhibition, primary screen, OD600; actives 0.21% (n = 330,000); OD600 absorbance (no concentration beside the values); AID 1053175, 2014; Escherichia coli growth, 23 h; stronger effect = lower value;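 active = OD600 absorbance below the run mean of sample wells minus 3.6 SD, in any replicate, cut at about 0.56 in these data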;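 also: stock transfer was 300 nL into about 60 µL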
UCH37 inh = inhibitors of human UCH37 deubiquitinase, primary screen, biochemical, Ub-AMC cleavage, fluorescence. Ubiquitin carboxyl-terminal hydrolase isozyme L5 (Homo sapiens), Q9Y5K5. inhibition, % (test concentration not listed). actives 0.33% (n = 330,000). purified proteasome/UCH37;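 active = mean of two replicates above 20%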;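 also: 0% = compound-free wells with enzyme and 100% = wells lacking proteasome; stock transfer was 100 nL into about 20 µL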
Target sequence (Q9Y5K5 whole entry, looked up): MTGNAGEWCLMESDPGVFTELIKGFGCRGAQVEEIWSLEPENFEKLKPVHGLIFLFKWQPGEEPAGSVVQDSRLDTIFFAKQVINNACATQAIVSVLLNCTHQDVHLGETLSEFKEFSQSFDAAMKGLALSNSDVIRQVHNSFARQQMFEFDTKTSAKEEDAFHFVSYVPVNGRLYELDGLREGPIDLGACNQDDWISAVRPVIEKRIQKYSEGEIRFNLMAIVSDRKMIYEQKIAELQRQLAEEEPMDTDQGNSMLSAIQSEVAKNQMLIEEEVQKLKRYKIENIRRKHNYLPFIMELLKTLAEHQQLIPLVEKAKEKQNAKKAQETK
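Material: human UCH37 enzyme supplied as purified proteasome complex. Measure: % inhibition of Ub-AMC cleavage fluorescence. Medium: pH 7.4 Tris-HCl (50 mM) with ovalbumin, ATP-MgCl2, DTT. Times: 30 min preincubation with enzyme, 25 min cleavage at room temperature. Detection: AMC fluorescence intensity at 355/460 nm.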
Beta cell apopt = inhibitors of cytokine-induced beta cell apoptosis, primary screen, luminescence; INS-1E cytokine-induced death, ATP luminescence, 48 h; percent of positive-control rescue, neutral wells zero; protection from apoptosis, % (concentration not given with the values); actives 0.8% (n = 300,000);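 active = all replicates at 75% or more, or half of them and the mean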;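 also: 0% = cytokine-treated negative control wells and 100% = positive control rescue; higher means more ATP so stronger rescue from cytokine killing; wells of about 40 µL received 100 nL stock; the first replicate is given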
T cruzi inh = inhibitors of intracellular T. cruzi growth, primary screen, luminescence, NIH3T3 host cells; T. cruzi beta-gal in NIH3T3, 90 h; inhibition, % (concentration not given with the values); actives 1.4% (n = 300,000); AID 1885, 2009;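 active = mean inhibition across valid replicates above about 55%, limit read from the data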;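 also: signal also drops with host cell toxicity which is not excluded here; 0% = plate median of DMSO wells and 100% = zero luminescence signal; higher percent means less beta-gal luminescence so fewer parasites; stock transfer was 50 nL into about 50 µL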
A1 inh = caspase 3/7 activation in MEF A1-2A-BIM cells, primary screen, A1 inhibitor project, cell-based, luminescence, HTS | Caspase-Glo 3/7 luminescence, 3 h; percent of clofoctol response, vehicle zero | caspase activation, % (concentration not given with the values) | actives 0.066% (n = 330,000);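 active = over half of replicate activation scores above 10%, or exactly half above 10 with the replicate mean above 10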;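 also: wells of about 30 µL received 50 nL stock; many hits fall short of the cut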
rRNA inh HTS = reduced GFP signal of wild-type E. coli, primary screen, bacterial rRNA inhibitor project, GFP/RFP fluorescence, OD600, single point. E. coli WT GFP vs humanized-ribosome RFP mutants, 24 h; stronger effect = lower value; DMSO median 0, no signal -100. GFP signal change (wild-type ribosome), % (concentration not given with the values). actives 1.6% (n = 350,000). AID 720706, 2013;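 active = significant combined selectivity score with lowered wild-type GFP, culture density cut under 30%, mutant RFP and density less affected; inactive = any of these conditions unmet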; also: one replicate is shown; some compounds called inactive have numbers as strong as hits
rRNA inh HTS OD600 = also measured in rRNA inh HTS; calls as there; OD600 change, %; measured here: OD600 growth;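 optical density of the mix in the first replicate; 0 = DMSO median and -100 = no signal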
rRNA inh HTS RFP = further read-out of rRNA inh HTS, marked with its call; RFP signal change, %; measured here: RFP humanized mutant strains;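 first replicate; 0 = DMSO median and -100 = no signal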
* hit, by the source's call; i = inactive; x = not tested or not shown; & = joins results of further samples. Only part of the results is shown. The share of hits here may be higher or lower than overall.

SMILES	MLL AF4-AF9 inh	FGF22 binding	Ecoli growth	UCH37 inh	Beta cell apopt	T cruzi inh	A1 inh	rRNA inh HTS	rRNA inh HTS OD600	rRNA inh HTS RFP
COc1ccc(S(=O)(=O)N2CCC(C(=O)NC3(C)CCS(=O)(=O)C3)CC2)cc1OC (stereo not given)	-2.9	i	0.67	0.6	-7	-7	-0.7	1	5	-1.3
CCc1ccc(OC)c(-c2csc(N)n2)c1	5.2	i	x	x	-12	-16	1.4	-5	-7	-0.4
CS(=O)(=O)c1ccc(NC(=O)CN2C(=O)C3CCCCC3C2=O)cc1 (stereo not given)	0.2	i	0.69	1.5	-3	1	1.2	2	10	-1.5
O=S1(=O)c2ccccc2OC(COCc2ccccc2)CN1Cc1ccccc1 (stereo not given)	4.4	i	0.71	1.4	x	x	x	12	1	-0.7
CCCCN(CC)C(=O)Cc1ccccc1OC	x	x	0.73	2.2	-6	x	0.6	x	x	x
Cc1sc2nc(SCC(=O)NCCCO)n(-c3ccccc3)c(=O)c2c1C	0.7	i	0.64	1.2	3	-4	0.8	7	-3	6.5
CC(=C/c1ccccc1)/C=N/n1c(C)n[nH]c1=S	0.4	i	x	x	x	-8	-2.1	-8	-7	-1.0
COC(=O)C1C(=O)NCC1c1ccc(OC)cc1 (stereo not given)	x	x	0.73	1.6	-7	-4	0.0	7	10	-2.4
CCOC(=O)CNC(=O)N1CCC(CCOc2ccccc2)(C(=O)OCC)CC1	-9.8	i	0.67	1.9	2	-7	2.1	18	8	1.8
N#Cc1nc(-c2cccs2)oc1N1CCOCC1	7.8	i	0.66	i	-4	-18	-0.2	1	-16	-0.9
CCOc1ccc(-n2c(SCc3cc(=O)oc4cc(C)c(C(C)C)cc34)nnc2-c2cccnc2)cc1	x	x	0.73	-4.7	15	27	0.1	x	x	x
COc1ccc(Cl)cc1-c1nc(SCC(=O)NC(C)C)n[nH]1	-1.3	i	0.7	-2.5	-6	-4	-0.3	21	13	-0.6
COc1ccc(OCC(=O)NNC(=O)c2ccc3c(=O)n4c(nc3c2)CCC4)cc1	-1.6	i	0.75	2.5	0	2	-0.2	11	4	-0.7
CCOCc1nnc(NC(=O)c2cc(Cl)ccc2OC)s1	x	x	0.67	-2.8	-7	1	0.4	x	x	x
C[C@H](CO)N1C[C@H](C)[C@@H](CN(C)Cc2ccc(Oc3ccccc3)cc2)Oc2ccc(NC(=O)Cn3cnnn3)cc2C1=O	3.9&7.2	i	x	2.3	-3	x	-0.2	-1&-7	-11&-6	2.3&-4.9
CCOc1cc(C(=O)Nc2cc(C)ccc2OC)ccc1OCC(=O)N1CCCCC1	x	x	0.7	0.3	2	8	1.0	x	x	x
COc1ccc2c(c1)CCc1cn3ncc(C#N)c3nc1-2	-4.5	i	0.75	-315	3	-1	0.8	13	7	2.9
CSCCC(NC(=O)c1ccccc1Cl)C(=O)N1CCCCC1 (stereo not given)	-5.6	i	0.66	1.8	0	x	-1.0	0	4	-3.2
Cn1c(=O)c2c(nc(NC3CCCCC3)n2CC(O)COc2ccccc2)n(C)c1=O (stereo not given)	x	x	0.65	1.8	10	7	-0.1	x	x	x
COc1ccccc1N1C(=O)c2cccc3c(C(=O)O)ccc(c23)C1=O	x	x	0.66	11	10	-10	-0.7	x	x	x
O=C(O)c1ccc2c(c1)C(=O)N(CCc1c[nH]c3ccccc13)C2=O	1.1	i	0.71	-24	-9	-9	-5.0	-9	-15	0.4
O=C(NC(=S)Nc1ccccc1N1CCN(C(=O)c2ccccc2)CC1)c1cccs1	x	i	0.68	-0.8	-2	-1	0.4	25	12	0.5
O=C(O)c1cc(S(=O)(=O)N2CCCCC2)ccc1F	x	x	0.71	-4.8	-1	-14	0.9	x	x	x
O=C(C1CCCN(S(=O)(=O)c2ccc(F)cc2)C1)N(Cc1cccs1)C1CC1 (stereo not given)	x	x	0.72	1.1	2	-3	0.7	x	x	x
Cc1cc(C)c2c(N)c(C(=O)Nc3ccc([N+](=O)[O-])cc3)sc2n1	1.3	i	0.66	3.0	1	13	-1.2	17	16	0.2
FC(F)(F)c1nc(SCc2ccc(Cl)cc2Cl)n[nH]1	-0.9	i	0.61	0.9	x	2	0.1	x	x	x
Cn1c(-c2ccc(F)cc2)cnc1SCC(=O)NNC(=O)Cc1ccccc1	0.0	i	0.68	0.7	x	-12	-1.0	-7	-16	-3.1
C=CCn1c(SCCOc2ccc(OC)cc2)nnc1C(C)NC(=O)c1ccc(OC)cc1 (stereo not given)	x	x	0.72	3.8	-10	17	0.0	x	x	x
Cc1ccc(NC2=C(NCCO)C(=O)c3ccccc3C2=O)cc1	x	x	0.67	26*	18	-5	0.4	x	x	x
CN(C)C(CNC(=O)c1ccc(NC(=O)c2cccs2)cc1)c1ccccc1 (stereo not given)	-0.9	i	0.64	6.3	4	6	0.6	2	7	2.9
COc1ccc(C(C(=O)NC2CCCC2)N(C(=O)c2snc(C(N)=O)c2N)c2cccc(O)c2)cc1 (stereo not given)	x	x	0.67	-40	-7	-9	-0.1	x	x	x
Cc1ccccc1NC(=O)CCc1c(C)nn(-c2ccc(N3CCOCC3)nn2)c1C	-4.7	i	0.74	1.5	-3	-12	0.3	14	10	-0.2
Cc1cccc(NC(=O)C2CC(=O)n3cnnc3S2)c1 (stereo not given)	x	x	0.69	1.4	0	20	0.9	x	x	x
Cc1cccc(N(CC(=O)NCc2ccco2)C(=O)CNS(=O)(=O)c2ccc(F)cc2)c1	0.8	i	0.7	6.0	-3	4	-0.6	-4	-2	5.7
O=C(c1cnn(C(=O)c2ccc(O)cc2)c1)c1ccccc1O	1.0	i	x	x	-7	-6	1.3	-4	-4	3.3
O=S(=O)(c1cccs1)N1CCN(Cc2cccc(F)c2)CC1	-0.4	i	0.72	3.4	0	15	0.2	-9	-14	-1.2
OCCNCc1ccc(OC2CCCC2)cc1	x	x	0.73	1.5	-2	4	-0.2	x	x	x
CCCc1nc(SCC(=O)Nc2ccc(S(=O)(=O)N(C)C)cc2)c2ccccc2n1	x	x	0.68	1.2	9	2	-0.2	x	x	x
CCOC(=O)c1ccc(Nc2nc(N)c3cc(OC)c(OC)cc3n2)cc1	x	x	0.66	-27	16	50	-6.2	x	x	x
CCOC(=O)C1=C(CC)Nc2ccccc2N=C1NC(=O)c1cccc(S(=O)(=O)N2CCCC2)c1	x	x	0.69	1.9	3	-11	0.9	x	x	x

Sorted by heavy-atom count (high to low): 14 of the compounds above.
SMILES	MLL AF4-AF9 inh	FGF22 binding	Ecoli growth	UCH37 inh	Beta cell apopt	T cruzi inh	A1 inh	rRNA inh HTS	rRNA inh HTS OD600	rRNA inh HTS RFP
COc1ccc(C(C(=O)NC2CCCC2)N(C(=O)c2snc(C(N)=O)c2N)c2cccc(O)c2)cc1 (stereo not given)	x	x	0.67	-40	-7	-9	-0.1	x	x	x
CCOC(=O)C1=C(CC)Nc2ccccc2N=C1NC(=O)c1cccc(S(=O)(=O)N2CCCC2)c1	x	x	0.69	1.9	3	-11	0.9	x	x	x
C=CCn1c(SCCOc2ccc(OC)cc2)nnc1C(C)NC(=O)c1ccc(OC)cc1 (stereo not given)	x	x	0.72	3.8	-10	17	0.0	x	x	x
Cc1cccc(N(CC(=O)NCc2ccco2)C(=O)CNS(=O)(=O)c2ccc(F)cc2)c1	0.8	i	0.7	6.0	-3	4	-0.6	-4	-2	5.7
Cc1ccccc1NC(=O)CCc1c(C)nn(-c2ccc(N3CCOCC3)nn2)c1C	-4.7	i	0.74	1.5	-3	-12	0.3	14	10	-0.2
CCCc1nc(SCC(=O)Nc2ccc(S(=O)(=O)N(C)C)cc2)c2ccccc2n1	x	x	0.68	1.2	9	2	-0.2	x	x	x
O=C(C1CCCN(S(=O)(=O)c2ccc(F)cc2)C1)N(Cc1cccs1)C1CC1 (stereo not given)	x	x	0.72	1.1	2	-3	0.7	x	x	x
CCOC(=O)c1ccc(Nc2nc(N)c3cc(OC)c(OC)cc3n2)cc1	x	x	0.66	-27	16	50	-6.2	x	x	x
Cc1ccc(NC2=C(NCCO)C(=O)c3ccccc3C2=O)cc1	x	x	0.67	26*	18	-5	0.4	x	x	x
O=C(c1cnn(C(=O)c2ccc(O)cc2)c1)c1ccccc1O	1.0	i	x	x	-7	-6	1.3	-4	-4	3.3
O=S(=O)(c1cccs1)N1CCN(Cc2cccc(F)c2)CC1	-0.4	i	0.72	3.4	0	15	0.2	-9	-14	-1.2
Cc1cccc(NC(=O)C2CC(=O)n3cnnc3S2)c1 (stereo not given)	x	x	0.69	1.4	0	20	0.9	x	x	x
FC(F)(F)c1nc(SCc2ccc(Cl)cc2Cl)n[nH]1	-0.9	i	0.61	0.9	x	2	0.1	x	x	x
OCCNCc1ccc(OC2CCCC2)cc1	x	x	0.73	1.5	-2	4	-0.2	x	x	x

Further entries follow.
SMILES	MLL AF4-AF9 inh	FGF22 binding	Ecoli growth	UCH37 inh	Beta cell apopt	T cruzi inh	A1 inh	rRNA inh HTS	rRNA inh HTS OD600	rRNA inh HTS RFP
CC1=C(C(N)=O)C(c2ccc(F)cc2)n2nc(CCCO)nc2N1 (stereo not given)	1.0	i	0.69	-4.3	-3	12	0.3	-3	7	-0.4
Cc1ccc(C)c(CSC2=NCCN2C(=O)Cc2ccc([N+](=O)[O-])cc2)c1	4.7	i	0.69	2.4	-6	28	0.2	7	5	7.8
OCCOCCn1c(CCNc2nc(-c3ccc(F)cc3)cs2)nc2cc(C(F)(F)F)ccc21	2.5	i	0.61	-1.1	1	-17	-0.3	-14	-16	-21
CCOCCCn1c(=N)c(S(=O)(=O)c2ccccc2)cc2c(=O)n3cc(C)ccc3nc21	26*	i	0.69	-327	-7	2	-0.2	2	10	-0.2
COc1ccc(CCNC(=O)N2CCOCC2)cc1	x	x	0.72	4.0	1	-7	-0.2	x	x	x
CCCNS(=O)(=O)c1cc(CN2C(=O)c3cccnc3C2=O)ccc1OC	4.8	i	0.68	3.5	-9	-7	0.0	15	11	0.3
CC(=O)c1cccc(NC(=O)NCc2cccs2)c1	x	x	0.64	0.7	9	-4	-0.3	x	x	x
O=C(CN1CCOc2ccccc21)NC1CC1	-1.5	i	0.7	3.9	-3	-8	2.1	10	10	3.0
CCOc1ccc(NC(=O)c2ccccc2-c2ccccc2C(=O)O)cc1	0.0	i	0.69	3.3	x	-4	0.1	-7	-4	-1.8
Cc1ccc(S(=O)(=O)c2nc(NCCN(C)C)sc2Cl)cc1	x	x	0.72	5.0	0	39	0.5	8	-3	0.0
CC(NC(=O)CSC1=NCCS1)c1ccccc1 (stereo not given)	x	x	0.69	0.2	x	0	-0.6	x	x	x
CCCCn1c(SCC(=O)N2CCN(c3ccccc3)CC2)nc2ccsc2c1=O	x	x	0.73	3.6	8	34	-0.6	x	x	x
